RN4220 kill: S. aureus RN4220 growth inhibition; OD600, 16 h; inhibition, % (test concentration not listed); 0.33% of 330,000 active;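 active means z-score of -3 or lower and OD600 up to 0.18 on both plates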;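 further: plate controls were untreated cells for no effect and reference antibiotic for full effect; stock transfer was 100 nL into about 80 µL; one replicate is shown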
Bead autofluor: flagged as autofluorescent in microsphere protease counterscreen | 3.1% of 360,000 active | compound autofluorescence counterscreen, microsphere flow cytometry; active compounds read high | AID 624483 | fluorescence intensity (test concentration not listed);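 active means at least 3 SD above the mean of all compounds, about 16000 in these data; inconclusive means too few beads counted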;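 further: 100 nL of 1 mM stock went into each well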
ugtP null kill: compounds lethal to S. aureus RN4220 ugtP deletion mutant; OD600 growth, 16 h; some inactives read as strong as hits; growth inhibition, % (concentration not given with the values); 0.54% of 330,000 active;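 active means z-score under -3 and OD600 up to 0.15 on both plates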;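 further: plate controls were untreated wells for no effect and antibiotic for full effect; wells of about 80 µL received 100 nL stock; the first replicate is given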
BJeLR viability: BJeLR cell viability loss. AID 1554. 0.17% of 300,000 active. inhibition, % (concentration not given with the values). BJeLR (HRASV12) viability, CellTiter-Glo ATP luminescence, 48 h; reference of the scale not given here;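 active means replicate mean above 50%; inconclusive means above 50% but judged a plate artefact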;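 further: 50 nL library stock added to about 25 µL; numbers are from one replicate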
Mtb hypoxia inh: Mtb hypoxia fluorescent reporter inhibition. 0.1% of 300,000 active. M. tuberculosis hypoxia-regulated fluorescent reporter, fluorescence. fluorescence inhibition, % (no concentration beside the values);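 active means 35 to 45% if threefold the growth effect, above 45% if 1.5-fold the growth effect; inactive means the rest, general growth blockers included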;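 further: wells of about 50 µL received 100 nL stock; 0% = vehicle wells and 100% = reference inhibitor wells; whole bacteria with a GFP reporter of the hypoxia response; strong numbers were not always called active; many hits fall short of the cut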
PrP 5UTR inh: inhibition of PrP 5' UTR reporter expression. cell-based PrP 5' UTR mRNA reporter, plate reader. inhibition, % (no concentration beside the values). 0.35% of 340,000 active;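 active means every replicate at 50% or more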;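 further: 0 = median of the neutral control wells; tested in H4 reporter cells; numbers are from one replicate; inactives centre near -14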
Mtb hypoxia inh growth: second read-out of Mtb hypoxia inh, no call of its own (marks repeat the call); growth inhibition, %; measured here: M. tuberculosis growth (absorbance);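 0% = vehicle and 100% = reference antibiotic; read after six days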
* hit, by the source's call; ? = inconclusive; . = no result given.

cpd | Molecule | RN4220 kill | Bead autofluor | ugtP null kill | BJeLR viability | Mtb hypoxia inh | Mtb hypoxia inh growth | PrP 5UTR inh
1 | O=C(NCCCCc1ccccc1)C1CC(c2ccc([N+](=O)[O-])cc2)=NO1 (configuration not stated) | 1.3 | 3064 | 4 | -4 | 0 | -2 | -31
2 | COc1ccc(NC(=O)CSc2nc3c(c(=O)n2C)SCC3)cc1OC | -0.4 | 4245 | 4 | 1 | 10 | 2 | -7
3 | C/C(=N\NC(=O)CNc1cccc2ccccc12)c1ccc(Br)s1 | . | 2458 | . | -4 | . | . | 0
4 | CC(C)CCNC(=O)Cn1c(=O)oc2cc(S(=O)(=O)N3CCc4ccccc43)ccc21 | -2.2 | 5374 | 3 | 4 | . | . | -29
5 | CCOC(CCn1c(SCC(=O)NC2CCCC2)nc2ccccc2c1=O)OCC | -0.1 | 5662 | 1 | -1 | 4 | 1 | -11
6 | CC(C)N1CCCC(CNC(=O)CCc2nnc(CCCCc3ccccc3)o2)C1 (configuration not stated) | 8.9 | 4334 | 0 | 0 | 0 | 4 | -22
7 | Cc1c(Br)c([N+](=O)[O-])nn1CC(=O)NCc1ccco1 | 2.3 | 10835 | 1 | -2 | 6 | 0 | -24
8 | c1ccc(Cc2cc(-c3ccccc3)on2)cc1 | 4.4 | 5154 | 3 | -5 | 4 | -1 | -72
9 | CC12CC3CC(C)(C1)CC(C(=O)NCc1ccncc1)(C3)C2 | 3.4 | 3784 | -1 | 10 | -2 | 6 | -54
10 | Cn1nc(C(=O)OCc2ccc(Br)cc2F)c2ccccc2c1=O | 5.3 | 4302 | -2 | -12 | 8 | 4 | -25
11 | COc1ccc(NC(=O)c2ccccc2N(Cc2ccccc2)S(C)(=O)=O)c(OC)c1 | 1.9 | 3554 | 11 | 1 | 13 | 16 | -19
12 | Cc1nc2cc(NCc3cc([N+](=O)[O-])ccc3O)ccc2n1Cc1ccccc1 | 11 | 1899 | 0 | 3 | -13 | 5 | -29
13 | OC1c2ccccc2C(Cc2cncs2)C1Br (configuration not stated) | 8.9 | . | -4 | . | 6 | 7 | .
14 | CCc1nc(SCC(=O)N2CCCC2)c2ccccc2n1 | 3.0 | 10605 | 3 | 1 | 16 | 15 | -10
15 | Cc1noc(NS(=O)(=O)c2ccc(NC(=O)C(CC(C)C)N3C(=O)c4ccccc4C3=O)cc2)c1C (configuration not stated) | 5.3 | 5128 | 12 | 9 | 6 | 3 | -20
16 | CCNS(=O)(=O)c1ccc(NS(=O)(=O)c2cc(C)ccc2C)cc1 | -0.4 | 4756 | -5 | -10 | . | . | -12
17 | C=CCn1c(Oc2ccccc2F)nc2c1c(=O)n(C)c(=O)n2C | 3.1 | 2783 | 7 | -2 | -2 | 2 | -41
18 | O=C(O)Cc1ccc2c(c1)N(S(=O)(=O)c1cccc(C(F)(F)F)c1)CC(C(=O)O)O2 (configuration not stated) | -1.2 | 9173 | 1 | 5 | 5 | 0 | -31
19 | NNC(=O)C(Cc1ccc(O)cc1)N1Cc2ccccc2C1=O (configuration not stated) | 5.8 | 3653 | 14 | -4 | 2 | 14 | 3
20 | CCC1Oc2ccc(C)cc2N(CC(=O)N(Cc2ccncc2)Cc2ccco2)C1=O (configuration not stated) | -1.3 | 6911 | -10 | -1 | -8 | -2 | -23
21 | COc1ccc(-c2cc(C(=O)Nc3c(C)n(C)n(-c4ccccc4)c3=O)c3ccccc3n2)cc1 | -1.7 | 3842 | -1 | -9 | -4 | 7 | -4
22 | CSc1ccccc1NC(=O)CN(c1ccccc1Br)S(C)(=O)=O | 0.6 | 2497 | 1 | -5 | 1 | -5 | -8
23 | CC(=O)c1cccc(NC(=O)C(C)OC(=O)c2cccc(S(=O)(=O)N3CCN(C)CC3)c2)c1 (configuration not stated) | 4.2 | ? | 6 | . | -4 | 0 | -14
24 | Cc1nn(C(C)C(=O)N2CCc3ccccc32)c(C)c1[N+](=O)[O-] (configuration not stated) | 3.3 | 9768 | 8 | 7 | 1 | 4 | -22
25 | O=C(CSc1nncn1-c1cccnc1)N(c1ccccc1)c1ccccc1 | 3.1 | 1996 | 4 | 2 | -3 | 0 | -9
26 | Cc1ccc(NN=Cc2ccc(N3CCOCC3)cc2)cc1C | 6.7 | . | -6 | . | 9 | 9 | .
27 | O=C(NCCCn1ccnc1)/C(=C\c1cccnc1)NC(=O)c1ccccc1Br | 0.2 | 10819 | 7 | -5 | 4 | -2 | -31
28 | CC(C)NC(=O)N(C)CC1Oc2ccc(NS(=O)(=O)c3cn(C)cn3)cc2C(=O)N(C(C)CO)CC1C (configuration not stated) | 8.1 | . | 2 | . | 16 | 4 | .
29 | COc1ccc(N=c2oc3cc(O)ccc3cc2C(=O)NCC2CCCO2)c(OC)c1 (configuration not stated) | 7.2 | ? | 7 | 0 | -5 | -8 | -4
30 | CNc1nc(C)c([N+](=O)[O-])c(Nc2ccc(OC)cc2)n1 | 7.2 | 3346 | 12 | -1 | 13 | 13 | -9
31 | CC(=O)O[C@]1(c2ccccc2)CCN(C)[C@H]2CCCC[C@@H]21 | 5.7 | 9186 | 4 | 3 | 10 | 4 | -34
32 | C=CCNC(=S)Nc1ccc(OC)c(S(=O)(=O)N2CCOCC2)c1 | 5.3 | 4811 | 2 | 1 | 6 | 12 | -14
33 | COc1ccc(OC)c(-c2nc(C)sc2CC(=O)O)c1 | 0.6 | 4268 | 6 | -4 | 2 | -3 | -17
34 | CC(C)CN(C)Cc1c(C(=O)N2CCc3ccccc3C2)nc2ccc(Cl)cn12 | 1.3 | 4571 | 8 | 15 | 16 | -4 | 2
35 | Cc1cnn2c(C3CC3)ccnc12 | -1.2 | 4108 | -7 | 5 | -7 | 8 | 15
36 | O=C(O)c1cc([N+](=O)[O-])cc2c1nnn2O | 5.5 | 4405 | 6 | 11 | 17 | 1 | -27
37 | COC(=O)c1ccc(NC(=O)C23CCC(C)(C(=O)O2)C3(C)C)cc1 (configuration not stated) | 2.4 | 3818 | 1 | 1 | 5 | 7 | -14
38 | Cc1nc(C(F)(F)F)c(C(=O)NC(=O)Nc2ccc(OC(F)(F)F)cc2)s1 | 3.8 | 7646 | -12 | -3 | 5 | 10 | -9
39 | CC[C@]12c3[nH]c4cc(-c5ccco5)ccc4c3CCN1C(=O)[C@@H](CC(=O)NCCCn1ccnc1)C[C@@H]2C(=O)N1CCN(C(=O)c2ccco2)CC1 | 0.6 | 3795 | 4 | . | 2 | 11 | -13
40 | O=C(OCc1cccs1)c1ccccc1NS(=O)(=O)c1ccc2c(c1)OCCO2 | 7.6 | 3594 | 19 | -8 | . | . | -8
41 | Cc1ccc(S(=O)(=O)N2CCC(C(=O)Nc3ccc(S(=O)(=O)N4CCCC4)cc3)CC2)cc1 | -1.6 | 4468 | -6 | -2 | -9 | -9 | -1
42 | O=C(NCCn1cc(SCc2ccccc2)c2ccccc21)c1ccccc1F | 2.3 | 4232 | 4 | 2 | 11 | 10 | -7
43 | CCc1c(C)nc2cc(-c3ccc(OC)c(OC)c3)nn2c1N1CCC(C)CC1 | 0.7 | 2806 | 9 | -5 | 0 | 5 | -46
44 | Cc1cc2cc(C)c3nnc(SCC(=O)Nc4ccc(S(=O)(=O)N5CCCCC5C)cc4)n3c2cc1C (configuration not stated) | 4.1 | 2154 | 0 | -3 | 1 | 5 | -34
45 | CCCCn1c(-c2csc(CCC)c2)n[nH]c1=S | 4.2 | 4645 | 0 | 0 | 3 | 0 | -8
46 | CN1CCCC(OC(=O)c2ccc3c(c2)OCCO3)C1 (configuration not stated) | -15 | 2908 | -1 | -5 | 7 | 8 | -16
47 | CC(C)CN(C(=O)c1ccc2c(c1)OCCO2)c1c(N)n(Cc2ccccc2)c(=O)[nH]c1=O | 1.7 | . | 2 | 3 | 0 | 0 | -5
48 | CCC(O)C1CCN(Cc2cn(-c3ccc(OC)cc3)nc2-c2cccc(F)c2)CC1 (configuration not stated) | 3.8 | 4372 | 1 | -10 | 4 | 15 | -16
49 | COc1cc(NS(=O)(=O)c2ccc(NC(=O)c3ccc([N+](=O)[O-])cc3)cc2)ncn1 | 2.5 | 5421 | 3 | 6 | 10 | 18 | -30
50 | COc1ccc(OC2CCN(S(=O)(=O)c3ccccc3)CC2)cc1 | 3.5 | 3792 | 10 | -1 | 3 | 6 | -22
51 | CN(O)/C=N/C(=S)Nc1ccc(Cl)cc1Cl | . | 4504 | . | -2 | . | . | -12
52 | Cc1cc(C)n(-c2nnc(C)n2/N=C/c2ccccc2O)n1 | . | 2003 | . | 17 | . | . | -7
53 | CC(C)CCn1c(=O)c2c(nc3n2CCCN3Cc2ccccc2)n(C)c1=O | -3.2 | 3586 | 19 | -1 | 16 | 12 | -13
54 | Cc1nn(C)c(-c2n[nH]c(=S)n2-c2ccccc2)c1Cl | 10 | 2143 | 11 | -9 | 7 | -15 | -41
55 | O=C(Nc1ccccc1)c1ccccc1OS(=O)(=O)c1ccccc1 | 3.2 | 3170 | 7 | -6 | 13 | 10 | -3
56 | O=c1[nH]c(=S)n(CCC2=CCCCC2)c(O)c1C=NC1CCN(Cc2ccccc2)CC1 | 2.6 | . | 2 | 14 | -1 | 10 | -13
57 | O=C(CCN1C(=O)/C(=C/c2ccc(Cl)cc2)SC1=S)Nc1cccnc1 | 4.9 | 3455 | 1 | -10 | -3 | -3 | -24
58 | COc1ccc(/C=C2/SC(=O)N(CCNC(=O)CC(NC(C)=O)c3ccccc3)C2=O)cc1 (configuration not stated) | 0.7 | 4349 | 5 | -18 | 4 | -2 | -26
59 | O=C1CN(C(=O)c2ccc(Cl)nc2)c2ccccc2N1 | 2.5 | 3224 | 3 | 2 | -4 | 2 | 0
60 | COc1ccc(CCNC(C(=O)Nc2cc(C)cc(C)c2)c2ccccc2)cc1 (configuration not stated) | -6.8 | ? | 24 | 8 | 0 | 2 | -13

Reformatted: 4 of the compounds above.
60. COc1ccc(CCNC(C(=O)Nc2cc(C)cc(C)c2)c2ccccc2)cc1 (configuration not stated)
  RN4220 kill: -6.8
  Bead autofluor: ?
  ugtP null kill: 24
  BJeLR viability: 8
  Mtb hypoxia inh: 0
  Mtb hypoxia inh growth: 2
  PrP 5UTR inh: -13

49. COc1cc(NS(=O)(=O)c2ccc(NC(=O)c3ccc([N+](=O)[O-])cc3)cc2)ncn1
  RN4220 kill: 2.5
  Bead autofluor: 5421
  ugtP null kill: 3
  BJeLR viability: 6
  Mtb hypoxia inh: 10
  Mtb hypoxia inh growth: 18
  PrP 5UTR inh: -30

44. Cc1cc2cc(C)c3nnc(SCC(=O)Nc4ccc(S(=O)(=O)N5CCCCC5C)cc4)n3c2cc1C (configuration not stated)
  RN4220 kill: 4.1
  Bead autofluor: 2154
  ugtP null kill: 0
  BJeLR viability: -3
  Mtb hypoxia inh: 1
  Mtb hypoxia inh growth: 5
  PrP 5UTR inh: -34

55. O=C(Nc1ccccc1)c1ccccc1OS(=O)(=O)c1ccccc1
  RN4220 kill: 3.2
  Bead autofluor: 3170
  ugtP null kill: 7
  BJeLR viability: -6
  Mtb hypoxia inh: 13
  Mtb hypoxia inh growth: 10
  PrP 5UTR inh: -3

Next part:
cpd | Molecule | RN4220 kill | Bead autofluor | ugtP null kill | BJeLR viability | Mtb hypoxia inh | Mtb hypoxia inh growth | PrP 5UTR inh
61 | COc1ccccc1NC(=O)C(C)Sc1nnc2ccccn12 (configuration not stated) | 4.3 | 8155 | 4 | . | 5 | 3 | -26
62 | CCCOc1ccccc1N/C(=N/c1nc(C)cc(C)n1)NC(=O)Nc1ccc(Cl)cc1 | . | ? | . | 5 | . | . | 1
63 | CCOC(=O)c1snc(-c2ccc(F)cc2)c1N | 13 | 11254 | -4 | -19 | 12 | 6 | -34
64 | O=C1CCCN1CCc1cccc2ccccc12 | 5.9 | 3789 | 3 | . | 7 | 5 | -32
65 | CN1CCN(S(=O)(=O)c2cccc(C(=O)NCc3ccccc3Cl)c2)CC1 | 2.1 | 3289 | -1 | -6 | 4 | 3 | -6
66 | FC(F)(F)c1nc2ccccc2n1CCNc1nc(CN2CCCCC2)cs1 | 4.1 | 3297 | -6 | 4 | 0 | 2 | -14
67 | O=S(=O)(c1cccc(-c2csc(-c3cccnc3)n2)c1)N1CCOCC1 | 2.3 | 4609 | 6 | -6 | 12 | 1 | 0
68 | COc1cc(S(=O)(=O)N2CCN(Cc3cccs3)CC2)ccc1NC(C)=O | 4.3 | 5854 | 7 | . | 10 | 9 | -5
69 | CCOc1ccc(NC(=O)CSc2nc3[nH]ncc3c(=O)[nH]2)cc1 | 2.2 | ? | 5 | 1 | 7 | -5 | 1
70 | Cc1cc(OCC(=O)NC(Cc2c[nH]c3ccc(O)cc23)C(=O)O)c2c(C)c(C)c(=O)oc2c1 (configuration not stated) | 4.4 | 5776 | -8 | -4 | . | . | -24
